Compound activity: PubChem BioAssay, several laboratories
CSC inhib: cancer stem cell viability inhibitors, primary screen, luminescence. cancer stem cell-like cells viability. inhibition, % at 7.5 µM. hit rate 1.1% among 300,000;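 active = mean at 75% or more and at least half the replicates too; tested in HMLE shEcad cells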;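 note: 0% = median of negative and 100% = median of positive control wells; the first replicate is given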
Env fusion inh: inhibitors of HIV-1 Env-driven cell-cell fusion, primary screen, HeLa-JRFL effector, CEM21 target cells, luciferase | hit rate 1.1% among 360,000 | inhibition, % at 12.3 µM;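 active = mean replicate inhibition score of at least 50 and every replicate individually at or above 50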;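 note: 0% = plate neutral controls and 100% = maraviroc near 300 nM; one replicate is shown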
Rce1 inh: yeast Rce1p protease inhibitors, primary screen, biochemical, fluorescence, cell-free homogeneous. yeast membranes, quenched prenylated peptide cleavage fluorescence. calls only. hit rate 0.27% among 290,000;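 active = fall in fluorescence gain of 50% or more versus controls, with final raw signal at or below 3038400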;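 note: plate controls were neutral control wells for no effect and wells lacking membranes for full effect; tested at 10 µM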
Target sequence (Q03530 whole entry, looked up): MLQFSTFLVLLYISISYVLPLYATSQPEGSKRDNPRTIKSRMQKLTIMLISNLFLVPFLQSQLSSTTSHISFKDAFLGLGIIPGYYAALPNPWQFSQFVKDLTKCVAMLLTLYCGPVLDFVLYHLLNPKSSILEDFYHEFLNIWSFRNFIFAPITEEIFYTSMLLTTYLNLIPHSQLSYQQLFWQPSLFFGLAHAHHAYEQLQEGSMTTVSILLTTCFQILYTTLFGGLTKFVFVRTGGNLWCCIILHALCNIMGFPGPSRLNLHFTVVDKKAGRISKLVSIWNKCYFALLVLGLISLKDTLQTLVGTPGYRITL
Yeast UUG start: modulators of yeast start codon fidelity, primary screen, whole organism, S. cerevisiae, single point, plate reader; S. cerevisiae UUG-firefly luciferase reporter, luminescence/redox ratio; activity score, % at 18.7 µM; hit rate 0.13% among 350,000; AID 602363, 2012;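 active = replicate mean at a twofold rise or more, about +100% in these data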;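 note: firefly luciferase made from a UUG start codon reports start codon fidelity; reporter light over untreated wells divided by growth signal over untreated wells; some hits fall short of that in this replicate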
eIF4H inh: human eIF4H binding inhibitors, primary screen, translation initiation inhibitor project, biochemical, uHTS, fluorescence polarization; inhibition, % at 35 µM; Eukaryotic translation initiation factor 4H (Homo sapiens), Q15056; hit rate 0.94% among 290,000; AID 2012, 2009; eIF4H fluorescence polarization binding assay;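 active = 50% or more with normal probe brightness, or confirmed in later tests; about a fifth of its hits are not listed in these tables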;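 note: calls also rest on retests at 20 µM and on dose response follow-up; 0% = protein and probe with vehicle and 100% = probe without protein; strong numbers were not always called active; many hits fall short of the cut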
MT1-MMP act inh: blockers of MT1-MMP proenzyme processing, primary screen, HT1080 RFP-PRO-GFP cells, GFP/RFP fluorescence | Matrix metalloproteinase-14 (Homo sapiens), P50281 | GFP/RFP ratio change, % at 20 µM | GFP/RFP ratio fluorescence, overnight; percent of plate control window, DMSO zero | hit rate 0.061% among 360,000 | AID 651647, 2012;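 active = GFP/RFP ratio change of at least 30% with cell ATP level not reduced by more than half and red fluorescence within 50% of control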; note: strong numbers were not always called active
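Read-out: GFP/RFP fluorescence ratio; Test system: RFP-PRO-GFP reporter HT1080 cells; Compound dosing: single-point 20 µM compound, 1% DMSO; Times: overnight compound exposure at 37 °C.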
PABP FP inh: PABP poly(A) RNA binding inhibitors, primary screen, biochemical, fluorescence polarization, uHTS | Polyadenylate-binding protein 1 (Homo sapiens), P11940 | inhibition, % at 35 µM | hit rate 1% among 290,000 | AID 2014, 2009;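 active = 50% or more with normal probe brightness, or confirmed in later tests; about a fifth of its hits are not listed in these tables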;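 note: calls also rest on retests at 20 µM and on dose response follow-up; controls were probe without protein and protein plus probe with vehicle; some compounds called inactive have numbers as strong as hits; many hits fall short of the cut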
eIF4H inh retest: also measured in eIF4H inh; calls as there; inhibition, %; compound at 20 µM; confirmation average;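 mean of two retest wells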
PABP FP inh retest: second read-out of PABP FP inh, no call of its own (marks repeat the call); inhibition, %; compound at 20 µM; confirmation repeats;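 mean of two retest wells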
MT1-MMP act inh RFP: second read-out of MT1-MMP act inh, no call of its own (marks repeat the call); RFP signal change, %; measured here: RFP expression control read;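 0 = vehicle wells; hits needed this value within 50% of zero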
* hit, by the source's call; i = inactive; . = no result given. Only part of the results is shown. The share of hits here may be higher or lower than overall.

SMILES	CSC inhib	Env fusion inh	Rce1 inh	Yeast UUG start	eIF4H inh	MT1-MMP act inh	MT1-MMP act inh RFP	PABP FP inh	others
CCNc1oc(-c2ccc(OC)cc2)nc1S(=O)(=O)c1ccc(Br)cc1	0	7	i	.	-8	-7	-5	9
COc1ccccc1NC(=O)C(C)OC(=O)CCCc1c[nH]c2ccccc12 (stereo not drawn)	-10	5	i	.	.	2	2	.
COc1ccc2ccccc2c1CNCCN1CCOCC1	-4	1	i	-6	-8	1	7	-5
NNC(=O)CNc1cccc(Cl)c1	-14	-3	i	.	-2	3	0	-1
CCN1CCN(C(=O)C2COc3ccccc3O2)CC1 (stereo not drawn)	-4	.	i	-3	0	1	2	-9
Cn1ccs/c1=N\C(=O)Nc1cccc(C(F)(F)F)c1	-5	-12	i	8	-3	4	3	-6
Fc1ccc(CNc2ccc(CNc3ncn[nH]3)cc2)cc1	.	-5	i	.	4	-1	-2	-3
Cc1cc(C)n2nc(NCc3cccc(Br)c3)nc2n1	-14	106*	i	-7	-3	5	3	-7
N#C/C(=C\c1cn(-c2ccccc2)nc1-c1cccnc1)c1nnc2n1CCCCC2	-7	-6	i	2	-3	-1	6	-10
O=C(Nc1ccncc1)c1ccc(Cl)c(S(=O)(=O)N2CCCCC2)c1	0	36	i	-14	.	-1	-31	.

Structures shown so far that have fluorine (2):
SMILES	CSC inhib	Env fusion inh	Rce1 inh	Yeast UUG start	eIF4H inh	MT1-MMP act inh	MT1-MMP act inh RFP	PABP FP inh	others
Cn1ccs/c1=N\C(=O)Nc1cccc(C(F)(F)F)c1	-5	-12	i	8	-3	4	3	-6
Fc1ccc(CNc2ccc(CNc3ncn[nH]3)cc2)cc1	.	-5	i	.	4	-1	-2	-3

The list continues:
SMILES	CSC inhib	Env fusion inh	Rce1 inh	Yeast UUG start	eIF4H inh	MT1-MMP act inh	MT1-MMP act inh RFP	PABP FP inh	others
CS(=O)(=O)c1ccc(C(=O)NC2CCCCC2)cc1	-2	-30	i	-10	-13	3	5	8
CCOC(=O)c1sc(=NC(=O)c2cccs2)n(C)c1C	0	-74	i	-1	3	1	4	4
N#C/C(C(=O)NCc1ccco1)=C1/SC(Cc2ccc(Cl)cc2)C(=O)N1c1ccccc1 (stereo not drawn)	26	.	i	-7	4	-8	3	8
COC(=O)c1cn(NC(=O)CC2CCCCC2)c(=O)c2ccccc12	-10	-15	i	-8	6	-1	1	0
CNC(=O)N1c2ccccc2NC(=O)CC1C (stereo not drawn)	-1	12	i	.	10	-1	2	0
O=C(Nc1n[nH]c(=S)s1)c1ccc2ccccc2c1	2	-109	i	-24	3	0	1	7
COc1ccccc1CC(=O)Nc1cc2oc3ccccc3c2cc1OC	66	.	.	-6	-6	4	-4	8
COc1ccc(OC)c(NC(=O)C2CCCN(S(=O)(=O)c3cccc4cccnc34)C2)c1 (stereo not drawn)	-7	-16	i	28	-16	0	0	0
Cc1noc(C(=O)Nc2sc3c(c2C#N)CCC3)c1Cl	7	10	i	2	-5	-4	-16	15
O=C(OCCOc1ccc(F)cc1)c1ccc(S(=O)(=O)N2CCCC2)cc1	.	6	.	-16	.	4	-3	.

Filtered by structure, those above containing a cyano group
SMILES	CSC inhib	Env fusion inh	Rce1 inh	Yeast UUG start	eIF4H inh	MT1-MMP act inh	MT1-MMP act inh RFP	PABP FP inh	others
N#C/C(=C\c1cn(-c2ccccc2)nc1-c1cccnc1)c1nnc2n1CCCCC2	-7	-6	i	2	-3	-1	6	-10
N#C/C(C(=O)NCc1ccco1)=C1/SC(Cc2ccc(Cl)cc2)C(=O)N1c1ccccc1 (stereo not drawn)	26	.	i	-7	4	-8	3	8
Cc1noc(C(=O)Nc2sc3c(c2C#N)CCC3)c1Cl	7	10	i	2	-5	-4	-16	15

The listing picks up, starting 2 compounds before the break.
SMILES	CSC inhib	Env fusion inh	Rce1 inh	Yeast UUG start	eIF4H inh	MT1-MMP act inh	MT1-MMP act inh RFP	PABP FP inh	others
Cc1noc(C(=O)Nc2sc3c(c2C#N)CCC3)c1Cl	7	10	i	2	-5	-4	-16	15
O=C(OCCOc1ccc(F)cc1)c1ccc(S(=O)(=O)N2CCCC2)cc1	.	6	.	-16	.	4	-3	.
O=C(CCCNC(=O)/C(=C/c1ccc(F)cc1)NC(=O)c1ccccc1)OCc1ccccc1	-6	14	i	17	-2	4	3	-4
COc1cccc(NC(=S)NCc2ccco2)c1	-8	0	i	-25	22	0	1	3
O=C(Nc1cc(S(=O)(=O)N2CCOCC2)ccc1-n1cncn1)c1ccc(Cl)cc1	21	-19	i	-11	3	0	-2	1
COc1ccc(-c2nn(-c3ccccc3)cc2C(=O)NC2CCCCC2C)cc1 (stereo not drawn)	-10	18	i	-8	.	1	1	.
CN(Cc1cccc(F)c1)C(=O)c1cc(=O)[nH]c2ccccc12	-20	8	.	-19	-3	-2	-2	12
CC(C)(C)OC(=O)N/N=C\c1ccc(OC(=O)c2cccs2)cc1	-8	-8	i	-8	-3	2	4	-6
COc1cc(-c2c(C#N)c(N)nc(SCc3ccncc3)c2C#N)cc(OC)c1OC	9	.	i	2	4	-25	-21	0
O=C(NCc1ccccc1)C(=O)NCC1OCCCN1S(=O)(=O)c1cccs1 (stereo not drawn)	1	0	i	-8	6	1	4	0
CCN(CC(=O)Nc1c(F)cccc1F)C(=O)C1CC(=O)N(c2ccccc2OC)C1 (stereo not drawn)	-23	.	i	-16	10	-2	1	62*	eIF4H inh retest=25;PABP FP inh retest=50*
CC(C)CCNC(=O)CCCC1=NS(=O)(=O)c2ccccc2N1	3	-14	i	.	-2	-1	5	-8
Cc1cc(OCCn2nc(C(=O)O)c3ccccc3c2=O)ccc1C(C)C	.	29	i	-11	15	6	-3	13
O=C1CSC(=S)N1c1ccccc1	.	13	.	-2	.	12	14	.
CC1CCCCN1CCNC(=O)CN1C(=O)COc2ccccc21 (stereo not drawn)	-10	.	i	-10	0	4	3	10
CC(C)c1onc(C(=O)N2CCN(c3ccccc3)CC2)c1[N+](=O)[O-]	-11	-8	i	8	-2	2	1	-2
